# Rango-impB inh – inhibitors of Rango-importin beta complex formation. 0.031% of 340,000 active. Rango CFP/YFP FRET sensor + importin beta, 45 min. Potency, µM (doses to about 92.2 µM), inactives show at the top dose inhibition of complex formation. Q14974; active = rising FRET ratio curve, often small or poorly fitted; inconclusive = mostly compound fluorescence or quenching in the first reads; inactive = flat curves in all reads;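 also: potency is read from the fitted curve at half-maximal effect; 0% = DMSO wells and 100% = buffer wells lacking importin beta; nearly all actives have a fitted effect of over 15% in size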
#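 FRET biosensor (snurportin 1 IBB flanked by EYFP and cerulean), 50 nM, with compound 5 min, then 0.125 microM importin beta in PBS, 1 mM DTT, 0.02% Tween-20, 0.1% BSA. CFP/YFP ratio read after 45 min at room temperature; pre-read flags interference.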
# Rango dissoc inh – inhibition of RanGTP-driven Rango-importin beta dissociation. O95149+P62826. Potency, µM (titrated, usually from 46.1 µM), without a hit: at the highest dose activity change, negative = inhibition. Biochemical FRET Rango-importin beta, RanGTP-induced dissociation. 0.071% of 340,000 active; active means falling FRET ratio curve, often poorly fitted, with flat reads before Ran was added; inconclusive means other falling curves, or compound fluorescence or quenching; inactive means flat or rising ratio curve;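 also: potency is read from the fitted curve at half-maximal effect; % of control where 0% means no effect; nearly all actives have a fitted effect of over 45% in size; -100% = wells without RanGTP and RCC1; the record marks most hits as doubtful in a second field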
#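 Compounds sat 5 min at room temperature with 0.1 uM Rango biosensor plus 0.25 uM importin beta, then FRET pre-read. RanGTP-RCC1 (0.6 uM Ran, 2mM GTP, 0.2 uM RCC1) added for 45 min, and the CFP/YFP post-read measured blocked complex dissociation.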
# GLA inh pH 4.5 – alpha-galactosidase A (human) inhibition, pH 4.5; purified enzyme, 4-MU-alpha-Gal fluorescence, pH 4.5; 230,000 tested, under 10 active; activity change, negative = inhibition, % at 105 µM; inconclusive = small, poorly fitted or top-dose-only inhibition, or a rising curve; inactive = flat fitted curve, though single readings scatter; no compound was filed as active;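 also: 0% = full activity with enzyme and -100% = basal without enzyme; dose as in the result columns while the protocol names 77 µM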
# Target sequence (P06280 whole entry, looked up): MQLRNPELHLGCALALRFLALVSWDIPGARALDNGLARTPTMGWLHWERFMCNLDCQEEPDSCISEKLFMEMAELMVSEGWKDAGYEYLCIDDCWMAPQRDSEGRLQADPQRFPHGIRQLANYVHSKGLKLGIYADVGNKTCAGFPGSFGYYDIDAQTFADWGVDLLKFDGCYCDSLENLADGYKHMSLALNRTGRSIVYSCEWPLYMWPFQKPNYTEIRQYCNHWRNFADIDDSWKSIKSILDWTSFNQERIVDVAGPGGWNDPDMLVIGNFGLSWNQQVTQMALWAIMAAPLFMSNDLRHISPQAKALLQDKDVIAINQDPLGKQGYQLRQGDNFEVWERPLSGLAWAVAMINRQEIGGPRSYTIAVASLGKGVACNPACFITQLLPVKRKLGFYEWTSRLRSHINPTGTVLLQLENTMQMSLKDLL
# miR-21 reporter – miR-21 reporter, rising signal | HeLa miR-21 FLuc reporter, luciferase, 48 h | Potency, µM (doses to about 38.3 µM), for the others: top-dose reporter change, positive = more light | 340,000 tested, under 10 active | AID 2288; active = well fitted rising curve with a large enough effect; inconclusive = small, poorly fitted or top-dose-only effect; inactive = no such curve, though single readings can be large or run the other way;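 also: % of control where 0% means no effect; miR-21 action dims this reporter so a rising signal means less miR-21 action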
#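 HeLa cells stably expressing CMV-driven firefly luciferase with a downstream miR-21 binding sequence, endogenously expressing miR-21, were treated with titrations (up to about 40uM final) for 48 hours at 37 degree Celsius. Luciferase luminescence was read after lysis.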
# Numbers without * were called inactive; ? = inconclusive; · = no result given; & = joins results of further samples. Only part of the results is shown, so the mix of outcomes need not match the whole.
SMILES,Rango-impB inh,Rango dissoc inh,GLA inh pH 4.5,miR-21 reporter
O=C(Nc1ccn([C@H]2CC[C@@H](CO)O2)c(=O)n1)c1ccccc1,1.4%,-5%,0,-18%
Cc1sc2ncn(CC(=O)N(CC(=O)NC3CCCC3)Cc3cccs3)c(=O)c2c1C,3.8%,-11%,0,-8%
COC(=O)COc1ccc(S(=O)(=O)Nc2ccc3c(c2)OCCO3)cc1Cl,-1.5%,3%,-1,-3%
O=C1CCCN1c1ccc(S(=O)(=O)N2CCCCC2)cc1,2.6%,12%,·,5%
COc1ccc(-n2cc(CNC3CCN(C)CC3)c(-c3cccc(F)c3)n2)cc1,1.4%,0%,-3,13%
Cc1ccc(C)c(NC(=S)N2CCN(c3cccc(C(F)(F)F)c3)CC2)c1,-3.4%,-14%,7,-7%
Cc1ccc(S(=O)(=O)/N=C(\CSC(N)=O)Nc2ccccc2)cc1,4.4%,-14%,2,-2%
CC(=O)N(C)c1ccc(NC(=S)Nc2cccc3ccccc23)cc1,-1.4%,21%,4,-53%
Cc1c(Cl)cc(-n2cnnn2)cc1[N+](=O)[O-],2.1%,5%,-3,4%
CCOc1cccc2sc(N(CCCN(C)C)C(=O)c3ccc(S(=O)(=O)N(C)Cc4ccccc4)cc3)nc12,-0.1%,25%,·,5%
CC(=O)/C(N=Nc1ccc2c(c1)OCO2)=C(\C)O,-0.6%,-10%,-1,-63%
COC(=O)c1ccccc1S(=O)(=O)NNC(=O)C1COc2ccccc2O1 (stereo not given),4.3%,1%,·,·
CCOC(=O)c1nn(C)c(=S)n(C)c1=O,0.0%,21%,·,·
Fc1ccccc1OCCSc1ncnc2nc[nH]c12,0.0%,-1%,9,-53%
Clc1ccc2c(NCc3ccccc3)ccnc2c1,1.5%,-8%,·,?
Cc1cccc2nc(CNc3ccc(F)cc3)cn12,0.9%,-15%,7,-37%
C#CCSc1n[nH]c(=O)n1-c1cccc(C(F)(F)F)c1,0.1%,-6%,-8,-8%
O=C(CCCN1C(=O)c2cccc3cccc(c23)C1=O)N1CCc2ccccc2C1,2.6%,2%,-4,-16%
CC(=O)N/C(=C/c1ccc2c(c1)OCO2)C(=O)NCCO,0.2%,-8%,·,-2%
CC1(C)NC(=O)N(CC(O)COC2CCCCC2)C1=O (stereo not given),-0.1%,-15%,-7,1%
CCOC(=O)CCCN1CC(O)=C(c2nc3ccccc3s2)C1=N,1.7%,-16%,-7,-26%
CN(CCC#N)c1ncnc2scc(-c3ccccc3)c12,0.1%,3%,-9,-15%
CC(C)CN(C(=O)COC(=O)COc1ccc2ccccc2c1)c1c(N)n(Cc2ccccc2)c(=O)[nH]c1=O,-1.8%,7%,·,·
COc1ccnc(CS(=O)c2nc3cc(C(O)(F)F)ccc3[nH]2)c1OC (stereo not given),?,-21%,·,-8%
CCOc1cc(C(=S)N2CCOCC2)ccc1OC(=O)c1ccc(C)cc1,2.2%,0%,·,-5%
COC(=O)CSCC(=O)Nc1nnc(-c2ccccc2C)s1,4.0%,24%,6,20%
COc1ccc(Cc2nnc(SCC(=O)N(C)c3ccccc3)o2)cc1,2.7%,10%,·,-1%
CCn1nc(C)c(CNC(=O)CC2C(=O)NCCN2CC(C)C)c1C (stereo not given),?,-7%,-5,0%
COc1cccc(NC(=O)C2CCCN(S(=O)(=O)c3ccc(-n4cnnn4)cc3)C2)c1 (stereo not given),4.3%,19%,-2,15%
O=C(COc1ncnc2ccccc12)NC(=O)NCc1ccccc1,-2.4%,-2%,5,-12%
COc1ccc(-n2c(SC)nc3sc4c(c3c2=O)CCN(C)C4)cc1,-5.0%,-12%,·,2%
COc1ccc(C2c3sc(=O)[nH]c3SC3C4CCC(C4)C23)cc1OC (stereo not given),-0.6%,17%,-1,1%
CCCn1c(/C=N/Nc2nc3ccccc3[nH]2)nc2ccccc21,?,?,-14,-13%
CSCCC(NC(=O)c1ccccc1Br)C(=O)NNC(=O)c1cc(C)oc1C (stereo not given),-0.6%,0%,·,·
O=C(COc1ccc2c3c(c(=O)oc2c1)CCC3)NCCCN1CCCC1=O,-5.2%,-12%,·,-1%
COc1ccc(NS(=O)(=O)c2cccc(C(=O)N3CCN(C(=O)c4ccco4)CC3)c2)cc1,-1.1%,6%,·,·
CCOC(=O)CCSc1nc(C(C)(C)C)cc(C(F)(F)F)c1C#N,3.3%,-1%,-15,-5%
Cc1cn(-c2cc(NC(=O)c3ccc(C)c(NC(=O)c4cccc(-c5cn[nH]c(=O)c5)c4)c3)cc(C(F)(F)F)c2)cn1,-1.1%,25%,·,15%
Cc1ccc(N2CC(C(=O)Nc3nnc(SCCC4OCCO4)s3)CC2=O)cc1C (stereo not given),0.5%,-1%,·,0%
COc1ccc(-c2c(C)nn3c(N4CCCCCC4)cc(C)nc23)cc1OC,-4.0%,20%,·,28%

# Arranged by number of heavy atoms (smallest number first): some entries from above.
SMILES,Rango-impB inh,Rango dissoc inh,GLA inh pH 4.5,miR-21 reporter
COc1ccc(C2c3sc(=O)[nH]c3SC3C4CCC(C4)C23)cc1OC (stereo not given),-0.6%,17%,-1,1%
COc1ccc(-c2c(C)nn3c(N4CCCCCC4)cc(C)nc23)cc1OC,-4.0%,20%,·,28%
Cc1ccc(N2CC(C(=O)Nc3nnc(SCCC4OCCO4)s3)CC2=O)cc1C (stereo not given),0.5%,-1%,·,0%
COc1ccc(NS(=O)(=O)c2cccc(C(=O)N3CCN(C(=O)c4ccco4)CC3)c2)cc1,-1.1%,6%,·,·

# (more compounds)
SMILES,Rango-impB inh,Rango dissoc inh,GLA inh pH 4.5,miR-21 reporter
O=C(CSc1nnc(-c2cc3ccccc3cc2O)n1Cc1ccco1)c1ccc(F)cc1,0.5%,3%,-1,25%
COCCN=c1scc(-c2ccc3c(c2)NC(=O)CO3)n1/N=C(\C)c1ccc(O)cc1,?,?,-1,?
CC1CCN(C(=O)COC(=O)c2n[nH]c3ccccc23)CC1,0.5%,3%,1,-45%
O=C1N[C@@H](c2ccccc2)COC(=O)[C@H](Cc2ccc(F)cc2)C/C=C\C[C@@H]1CC(=O)N(CCO)Cc1ccccc1,-3.0%,-7%,·,·
Cc1ccccc1-c1nc(CS(=O)(=O)CC(=O)NC(C)c2ccccc2)c(C)o1 (stereo not given),-3.1%,2%,·,4%&-6%
CC(C)(C)C(=O)[C@@H]1[C@@H]2C(=O)N(Cc3ccccc3)C(=O)[C@@H]2[C@H]2c3ccccc3C=CN12,·,·,1,-1%
COc1ccc(Cc2nnc(NC(=O)CSc3ccccc3)s2)cc1,-0.8%,-8%,2,-1%
O=C(CN=C1NC(=O)C(c2ccccc2)(c2ccccc2)N1)NCc1ccc(F)cc1,0.4%,3%,-3,-4%
O=C(OCc1ccc(Br)cc1)c1cccnc1Cl,5.2%,-13%,·,-1%
Cc1c(C(=O)N/N=C/c2c(O)ccc3ccccc23)nnn1-c1nonc1N,?,9%,·,12%

# Full records from above.
# CC1CCN(C(=O)COC(=O)c2n[nH]c3ccccc23)CC1 as listed: Rango-impB inh = 0.5%; Rango dissoc inh = 3%; GLA inh pH 4.5 = 1; miR-21 reporter = -45%
# O=C1N[C@@H](c2ccccc2)COC(=O)[C@H](Cc2ccc(F)cc2)C/C=C\C[C@@H]1CC(=O)N(CCO)Cc1ccccc1 as listed: Rango-impB inh = -3.0%; Rango dissoc inh = -7%; GLA inh pH 4.5 = ·; miR-21 reporter = ·

# Remaining list, next part
SMILES,Rango-impB inh,Rango dissoc inh,GLA inh pH 4.5,miR-21 reporter
CCc1ccc(N2C(=O)CC(N3CCC(C(=O)OC)CC3)C2=O)cc1 (stereo not given),-0.1%,-1%,5,-4%
COC(=O)C(CC(C)C)NC(=O)c1cc(OC)c(OC)c(OC)c1 (stereo not given),-1.2%,2%,-6,-1%
Cc1ccc2c(C(=O)CN3CCN(C4CCCCC4)CC3)c(C)[nH]c2c1,0.8%,16%,-2,0%
O=C(/C=C/c1c(Cl)nc2ccccn12)N1CCN(c2ccccc2F)CC1,0.0%,-7%,3,-9%
CCCC(=O)Nc1ccc(-c2nc3ncccc3o2)cc1,8.7%,2%,·,-58%
CCOC(=O)N1CCN(C(=O)c2cc3sccc3n2C)CC1,-0.3%,-13%,0,-1%
Cc1ccc(C(C(=O)NC(C)(C)C)N(CC2CCCO2)C(=O)CCC(=O)Nc2ccccn2)cc1 (stereo not given),-0.5%,3%,·,-1%
Cc1cccc(CN2CCC(C(=O)Nc3cccc(-c4cccc(F)c4)c3)CC2)n1,2.6%,8%,·,26%
CCN(CC)S(=O)(=O)c1ccc(N2CCN(C)CC2)c(NC(=O)CSCC(=O)Nc2cccc(C)c2)c1,10%,26%,·,·
COC(=O)c1cccc(N2C(=O)c3ccccc3S2(=O)=O)c1,-1.1%,14%,1,-10%
Cc1cc(=O)oc2c3c(cc(OCC(=O)NCC4CCC(C(=O)O)CC4)c12)OC(C)(C)CC3 (stereo not given),1.0%,-1%,·,-6%
CS(=O)(=O)N1CCC(C(=O)N2CCN(c3ccccc3F)CC2)CC1,-2.9%,7%,-5,4%
CCc1ccccc1NC(=O)C1CCCN(S(=O)(=O)c2c(C)noc2C)C1 (stereo not given),-1.2%,2%,4,-4%
CCCCOC(=O)c1ccc(NC(=O)C(=O)NCCN(CC)CC)cc1,0.0%,7%,-3,2%
CC(C)OCCCNC(=O)C1CCC(=O)N1C(C)C (stereo not given),1.8%,-14%,-4,0%
CCCCCC(=O)N/N=C(\C)c1ccc(NC(=O)c2ccco2)cc1,3.9%,-2%,2,-27%
CC1CN(S(=O)(=O)c2cccc(C(=O)NCCC3=CCCCC3)c2)CC(C)O1 (stereo not given),0.3%,-6%,·,·
Cc1cc(C)cc(NC(=O)C(c2ccccc2)N2CCN(CC(=O)N3CCCC3)CC2)c1 (stereo not given),-1.0%,6%,·,·
COCCn1c(SCC(=O)Nc2ccc(F)cc2F)nc2c([nH]c3ccccc32)c1=O,3.2%,2%,·,1%
COc1ccccc1NC(=O)c1cc2ccccc2nc1C,0.1%,-13%,12,-1%
O=C(O)c1cc2nc(C3CC3)cc(C(F)(F)F)n2n1,-0.3%,-8%,0,2%
C1CCC(n2nnnc2CN2CCN(C3CCCC3)CC2)CC1,-0.5%,-1%,-7,-1%
Cc1cnc(C(=O)OCC(=O)Nc2ccc(C)c(S(=O)(=O)N3CCOCC3)c2)cn1,-0.7%,-7%,·,·
CNS(=O)(=O)c1cccc(C(=O)OCc2cc(=O)n3cc(Br)ccc3n2)c1,0.8%,-3%,5,-8%
COc1ccc(OCc2cc(=O)[nH]c3ccccc23)cc1,-3.9%,-4%,·,-4%
CCOc1ccccc1N1CCN(C(=O)C2c3ccccc3Oc3ccccc32)CC1,-1.1%,-8%,2,26%
COc1cc(OC)c(C(=O)O/N=C(\N)c2ccccc2)cc1OC,0.5%,10%,·,-31%
CCOC(=O)C(C)Sc1nc(=O)n2ccccc2n1 (stereo not given),3.5%,4%,7,0%
O=C(c1ccco1)N1CCN(C(=O)c2sccc2-c2ccccc2)CC1,0.4%,-17%,-4,4%
O=C(O)c1ccccc1NS(=O)(=O)c1ccc2c3c(cccc13)C(=O)N2,3.7%,2%,3,4%
Cc1ccc(S(=O)(=O)C(c2ccccc2)c2c(C)noc2C)cc1 (stereo not given),-0.8%,0%,-2,?
Cc1cc2c(=O)n(C)c(SCC(=O)Nc3ccccc3)nc2s1,0.0%,26%,·,-4%
O=C(CCN1C(=O)C2CCCCC2C1=O)Nc1nc(-c2ccccc2)cs1 (stereo not given),0.6%,-29%,-6,-22%
O=C(N/N=C\c1ccc(Br)cc1)c1ccc(Cn2cccn2)o1,-0.3%,4%,-1,-38%
CCCc1nnc(SCC(=O)Nc2ccc(C(=O)OCC)cc2)o1,-2.1%,-9%,·,-15%
CCn1c(=O)n(CC)c2cc(S(N)(=O)=O)ccc21,-3.5%,-9%,-3,-3%
Cn1c(Oc2ccccc2NCc2cccc(Br)c2)cc(=O)n(C)c1=O,3.2%,2%,-11,-1%
COc1cc(C(=O)N/N=C/c2ccccn2)cc(OC)c1OC,-0.3%,-10%,-6,24%
Cc1nc2cc(-c3ccccc3)[nH]n2c(=O)c1C,1.7%,11%,·,-50%
Cc1cccc(C)c1NC(=S)N/N=C/c1ccc(OCCC(C)C)cc1,0.0%,-4%,-7,0%
